Rad51 HR inh: blocks human Rad51 in homologous recombination | Q06609 | hRad51 DNA strand exchange, fluorescence dequenching | inhibition, % at 10 µM | 0.085% of 200,000 active | AID 1385;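 active = inhibition above 40% at the single screening dose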;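 note: 0% = DMSO control wells and 100% = blanks with heterologous ssDNA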
Target sequence (Q06609 whole entry, looked up): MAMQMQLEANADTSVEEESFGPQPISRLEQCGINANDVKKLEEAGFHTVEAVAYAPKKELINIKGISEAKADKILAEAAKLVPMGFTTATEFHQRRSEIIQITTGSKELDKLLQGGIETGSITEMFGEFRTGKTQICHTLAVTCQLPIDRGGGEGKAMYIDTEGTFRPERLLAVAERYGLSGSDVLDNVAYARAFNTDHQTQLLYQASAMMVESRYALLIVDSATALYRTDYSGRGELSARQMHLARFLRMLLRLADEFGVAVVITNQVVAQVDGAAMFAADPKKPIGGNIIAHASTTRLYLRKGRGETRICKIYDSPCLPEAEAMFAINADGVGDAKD
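Test system: preformed human Rad51 ssDNA filaments. Compound dosing: single dose, 10 µM final compound. Incubation: filaments 15 min 37 °C, then compound 30 min. Technique: FRET fluorescence dequenching, excitation 485 nm, emission 520 nm. Read-out basis: percent inhibition from fluorescence, normalised to plate control and blank means. Benchmarks: plate controls and plate blanks.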
TNF necrop inh: inhibitors of TNF-alpha induced necroptosis in Jurkat FADD-/- cells | Jurkat FADD-/- TNF necroptosis rescue, ATP luminescence, 24 h; 0 = TNF only, 100 = no-TNF cells | activation (protection from cell death), % at 10 µM | 0.068% of 220,000 active | AID 463075;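 active = activation, meaning protection from cell death, of at least 50% relative to plate controls; inactive = activation below 50%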;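 note: necroptosis triggered by 40 ng/mL TNF-alpha added together with compound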
Hck Nef HTS: blocks Nef-activated human Hck kinase | inhibition, % at 20 µM | Recombinant Hck-YEEI plus Nef, Z-Lyte FRET kinase assay | P08631 | 0.68% of 220,000 active;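 active = Hck-Nef kinase inhibition above about 50%, limit read from the data; inactive = inhibition below that limit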;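 note: 0% = DMSO with Hck plus Nef and 100% = Hck alone without Nef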
hK5 inh: blocks human kallikrein 5 protease activity | recombinant hK5, fluorogenic AMC substrate cleavage | inhibition, % at 5 µM | 0.59% of 210,000 active;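 active = inhibition of 40% or more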;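 note: 0% = enzyme controls without compound and 100% = no-enzyme blanks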
Target sequence (Q9Y337 67-293 limits assumed): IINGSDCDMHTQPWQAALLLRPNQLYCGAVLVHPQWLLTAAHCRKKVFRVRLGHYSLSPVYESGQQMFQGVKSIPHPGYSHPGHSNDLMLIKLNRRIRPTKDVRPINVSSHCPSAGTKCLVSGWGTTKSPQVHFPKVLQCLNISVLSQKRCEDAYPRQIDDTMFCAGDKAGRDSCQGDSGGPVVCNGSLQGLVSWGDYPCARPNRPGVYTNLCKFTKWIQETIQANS
L929 necroptosis: blocks zVAD induced death of L929 cells | L929 zVAD necroptosis rescue, ATP luminescence, 24 h; with zVAD 60 µM | viability rescue, % at 10 µM | 0.38% of 220,000 active | AID 1377;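 active = activation, scaled between plate controls, above about 75%, limit read from the data; inactive = activation under that limit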;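 note: 0% = zVAD with DMSO and 100% = DMSO alone without zVAD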
thrombin 1536: inhibitors of human thrombin | P00734 | alpha-thrombin, Boc-VPR-AMC fluorogenic substrate cleavage | inhibition, % at 5 µM | 0.26% of 220,000 active;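 active = inhibition at or above 40%; inactive = inhibition below 40%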;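 note: 0% = enzyme with no compound and 100% = wells without enzyme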
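Material: human alpha-thrombin enzyme / Medium: pH 7.5 Tris (50 mM) with NaCl 150 mM, Tween 20 0.05% / Compound: single-point dosing at 5 µM, 0.2% DMSO / Incubation: enzyme reaction carried out at room temperature / Detection: AMC fluorescence, 355/460 nm / Read-out basis: percent inhibition scaled between no-compound controls and no-enzyme blanks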
Cl transport mod: modulators of human KCC2 chloride dependent transport. Q9H2X9. KCC2 cells, thallium flux FluoZin-2 fluorescence. B-score of Tl+ flux slope (higher = more flux/activation; lower = inhibition) at 10 µM. 2.2% of 190,000 active;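 active = thallium flux slope and its plate-corrected score both differing from the plate sample mean at a set confidence after two filtering rounds, in either direction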;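 note: slope of fluorescence scaled to starting intensity during 10 to 20 s after thallium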
* = called active by the depositor; . = no result given. An excerpt (hit frequency here may not be typical).

item	SMILES	Rad51 HR inh	TNF necrop inh	Hck Nef HTS	hK5 inh
1	C/C(=N/NC(=O)CNC(=O)/C=C/c1ccco1)c1ccc(Cl)cc1	5	0.5	30	-5
2	Cc1ccc(S(=O)(=O)N2CCCCC2)cc1NC(=O)CSc1nccn1C	-4	0.4	22	3
3	COc1ccc(CCCC(=O)NCc2ccccc2)cc1C	-5	-2.7	3	-10
4	O=C(Oc1ccc(=O)n(-c2ccccc2)n1)c1ccccc1	-9	-1.1	0	-3
5	Cc1onc(-c2ccccc2)c1C(=O)N1CCc2ccccc21	-5	-0.8	2	-3
6	COc1ccc(-c2cc3ccccc3oc2=O)cc1NC(=O)c1cccnc1	11	-5.5	0	-4
7	COc1ccc(/C=N/Nc2nc(-c3ccc(Cl)cc3)cc(C(F)(F)F)n2)c(OC)c1	3	1.1	3	-12
8	CS(=O)(=O)n1nc(OC(=O)c2cccc3ccccc23)cc1N	6	-4.3	-1	9
9	CC(=O)Nc1ccc(NC(=O)CSc2nnc(-c3ccc(NS(C)(=O)=O)cc3)n2C)cc1C	22	-0.2	24	2
10	C=CCc1cc(C=O)cc(OC)c1OCc1c(Cl)cccc1Cl	-7	-5.7	0	-6
11	COc1ccccc1OCC(=O)NNC(=O)c1cccs1	4	1.0	0	-6
12	O=[N+]([O-])c1cc(-c2n[nH]c(-c3ccccc3)n2)cc([N+](=O)[O-])c1	-3	0.1	3	5
13	COc1ccc(C(=O)NC(Cc2ccc(OC(=O)c3ccc(OC)cc3)cc2)C(=O)O)cc1 (centres undefined)	-4	1.3	27	-3
14	CCCOc1ccc(Cc2nc(N)nc(N)n2)cc1	-5	-0.7	3	3
15	O=C(CSc1nc(-c2ccco2)cc(C(F)(F)F)n1)NN1CCOCC1	.	-0.2	13	.

item	L929 necroptosis	thrombin 1536	Cl transport mod
1	-0.4	-8	-1.8
2	-0.8	-5	0.43
3	0.4	-4	-0.29
4	-0.2	6	-0.4
5	0.5	3	.
6	0.0	2	.
7	0.4	-6	-0.052
8	-0.4	4	.
9	30	-4	0.48
10	-0.3	-1	-0.54
11	0.7	-2	0.86
12	2.0	1	.
13	0.0	.	-0.011
14	2.5	1	-0.38
15	0.8	-1	0.013

Rewritten with one line to a screen: 3 of the compounds above
(9) CC(=O)Nc1ccc(NC(=O)CSc2nnc(-c3ccc(NS(C)(=O)=O)cc3)n2C)cc1C
(10) C=CCc1cc(C=O)cc(OC)c1OCc1c(Cl)cccc1Cl
(11) COc1ccccc1OCC(=O)NNC(=O)c1cccs1
entry no. | 9 | 10 | 11
Rad51 HR inh | 22 | -7 | 4
TNF necrop inh | -0.2 | -5.7 | 1.0
Hck Nef HTS | 24 | 0 | 0
hK5 inh | 2 | -6 | -6
L929 necroptosis | 30 | -0.3 | 0.7
thrombin 1536 | -4 | -1 | -2
Cl transport mod | 0.48 | -0.54 | 0.86

(continued)
item	SMILES	Rad51 HR inh	TNF necrop inh	Hck Nef HTS	hK5 inh
16	CCN(CC)S(=O)(=O)N1CCC(C(=O)NC2CCCC2)CC1	4	0.3	2	-5
17	C[C@H](NS(=O)(=O)c1ccc(Cl)cc1)C(=O)OCC(=O)c1ccc[nH]1	0	0.8	14	-2
18	COC(=O)c1nc(NC(=O)c2ccc(Cl)cc2)n[nH]1	-1	2.5	2	-14
19	COCc1cc(=O)[nH]c(/N=C(\N)Nc2ccc(Oc3ccccc3)cc2)n1	0	-2.5	18	-24
20	CCc1cccc2c(C(=O)COC(=O)/C=C/c3ccccc3OC)c[nH]c12	9	-1.7	0	-12
21	COc1ccc2sc(NC(C)=O)nc2c1	-1	-0.1	-2	-16
22	N#Cc1ccc(/C=N/NC(=O)c2ccccc2F)cc1	-4	1.1	0	-11
23	Cc1cc2c(=O)oc(-c3ccc(Br)cc3)nc2s1	10	-11	-33	10
24	CCCS(=O)(=O)N1CCC(C(=O)N2CCN(C(=O)OCC)CC2)CC1	2	0.2	-1	-4
25	CC1=C(C(=O)OCC2CCCO2)C(c2ccccc2OC(C)C)C2=C(CC(c3ccco3)CC2=O)N1 (centres undefined)	-4	1.6	30	-84
26	Cc1ccc(C(=O)Oc2ccc(/C=N/NC(N)=O)cc2)cc1	6	0.3	25	0
27	O=[N+]([O-])c1ccccc1/C=N/n1c(-c2cccnc2)n[nH]c1=S	-4	3.2	1	1
28	COc1ccc(CNC(=O)C2CC(c3ccc(F)cc3)=NO2)cc1 (centres undefined)	-6	-1.6	1	-7
29	COCCCNc1nc2ccccc2nc1NS(=O)(=O)c1ccc(C)cc1	.	2.6	23	2
30	Cc1ccc(S(=O)(=O)N(CC(=O)N2CCC(C)CC2)c2cccc(C)c2)cc1	2	-0.5	-1	-9

item	L929 necroptosis	thrombin 1536	Cl transport mod
16	0.5	-1	0.19
17	-0.7	-2	-0.5
18	3.8	.	0.42
19	1.6	4	-0.11
20	8.8	-12	-1.9
21	57	-3	.
22	0.9	-12	0.5
23	0.0	4	0.33
24	0.0	3	-0.021
25	-0.3	-2	-0.27
26	1.4	-2	0.58
27	2.3	-1	-1
28	0.9	0	-0.08
29	-0.5	-7	0.61
30	-0.4	0	-1.4

Looked up by structure from above, two records:
item	SMILES	Rad51 HR inh	TNF necrop inh	Hck Nef HTS	hK5 inh
14	CCCOc1ccc(Cc2nc(N)nc(N)n2)cc1	-5	-0.7	3	3
11	COc1ccccc1OCC(=O)NNC(=O)c1cccs1	4	1.0	0	-6

item	L929 necroptosis	thrombin 1536	Cl transport mod
14	2.5	1	-0.38
11	0.7	-2	0.86

Later entries.
item	SMILES	Rad51 HR inh	TNF necrop inh	Hck Nef HTS	hK5 inh
31	CCN(CC)S(=O)(=O)c1ccc(C)c(C(=O)Oc2cccc(-c3cnc4ccccc4n3)c2)c1	0	0.2	3	-12
32	COc1cc2c(cc1OC)-c1cc(N3CCCCCC3)nc(=O)n1CC2	-3	-4.3	3	5
33	O=C(CSc1nnc2c(Cl)cc(C(F)(F)F)cn12)Nc1ccc2c(c1)OCO2	2	-0.8	3	4
34	O=C(O)c1ccc2nc3c(nc2c1)-c1ccccc1C3=O	1	-1.8	27	1
35	O=C(N/N=C/c1ccsc1)c1ccccn1	1	-2.4	11	31
36	CC(C)N1CCc2c(sc(NC(=S)NC(=O)c3ccccc3)c2C#N)C1	-276	5.2	3	-5
37	CS(=O)(=O)n1nc(C(=O)N2CCOCC2)nc1N	.	2.6	3	-7
38	Cc1nnc(SCC(=O)c2ccccc2)n1Cc1ccccc1	-1	2.6	0	-5
39	Cc1cc(-c2cc(-c3ccc(Cl)cc3)on2)nc(NCC2CC2)n1	4	0.5	2	21
40	Cc1cccc(S(=O)(=O)Nc2nc3ccccc3nc2NCC2CCCO2)c1 (centres undefined)	6	0.1	20	-2
41	Cc1ccsc1/C=N/NC(=O)c1ccccn1	9	-2.0	5	-16
42	C/C(=N\NC(=O)c1ccc(NS(=O)(=O)c2cccs2)cc1)c1cccs1	2	2.3	5	2
43	CC(C)(C)n1nnnc1CN1CCN2CCCC2C1 (centres undefined)	10	-0.6	0	1
44	Cc1ccc2cc(C)c3nnc(SCC(=O)Nc4nc5c(s4)CCCC5)n3c2c1	2	-0.6	2	9
45	CCOc1ccc(C2C(C#N)=C(N)Oc3cc(C)n(Cc4ccco4)c(=O)c32)cc1OC (centres undefined)	-6	-4.0	1	12

item	L929 necroptosis	thrombin 1536	Cl transport mod
31	1.5	1	1.2
32	0.2	5	-0.56
33	1.0	-4	.
34	2.0	-9	-1.6
35	-1.9	35	-0.03
36	2.5	2	-1
37	.	1	1.1
38	0.5	-10	-0.012
39	0.5	28	0.59
40	-0.1	-2	-0.35
41	-0.4	-8	0.32
42	9.0	0	-0.044
43	-0.1	-2	-0.68
44	4.4	3	.
45	-0.2	-3	-0.87

(continued)
item	SMILES	Rad51 HR inh	TNF necrop inh	Hck Nef HTS	hK5 inh
46	COc1cccc(N=Cc2nc(-c3ccccc3)oc2OC(C)=O)c1	20	-0.6	15	18
47	CC1=C(C(=O)OCC2CCCO2)C(c2cccc(C(F)(F)F)c2)C2=C(CC(c3ccco3)CC2=O)N1 (centres undefined)	-7	-2.1	3	-4
48	CCOCCOC(=O)NCCCCCCNC(=O)OCCOCC	-8	1.8	14	-2
49	Cc1ccc2[nH]c(=O)c(C(c3nnnn3Cc3ccccc3)N3CCc4ccccc43)cc2c1 (centres undefined)	2	-1.1	-2	-11
50	O=C(N/N=C/C=C/c1ccco1)c1cccc([N+](=O)[O-])c1	3	1.3	7	-9
51	O=C(NCCCN1CCOCC1)c1ccc(CNS(=O)(=O)c2ccc(Br)cc2)cc1	.	5.9	7	-12
52	CCOc1ccc(CNc2ncnc(N)n2)cc1	0	1.6	6	-16
53	COc1ccccc1C(=O)COC(=O)CNS(=O)(=O)c1ccc(C)cc1	1	-0.4	6	2
54	COc1ccc(NC(=O)c2nc[nH]c2C(=O)Nc2ccccc2C)cc1	2	-11	-1	-64
55	O=C(NC1CCN(C(=O)N2c3ccccc3Sc3ccccc32)CC1)c1ccccc1F	5	-3.7	3	5
56	O=C(c1cc2nc(-c3cccs3)cc(C(F)(F)Cl)n2n1)N1CCCc2ccccc21	4	0.0	2	-8
57	O=c1c2ccccc2nc(-c2ccccc2)n1Cc1ccccc1	7	0.3	0	-7
58	COc1ccc(-c2nnc(SCCC(=O)O)n2C)cc1OC	-5	-0.7	13	8
59	c1ccc(C(c2ccccc2)N2CCN(Cc3nnnn3C3CCCC3)CC2)cc1	1	-1.2	0	-17
60	CCOc1ccc(C2C(C#N)=C(N)Oc3cc(C)n(CCN(C)C)c(=O)c32)cc1OCC (centres undefined)	-2	-1.9	6	22
61	CCCC1Cc2c(sc(NC(=S)NC(=O)c3ccccc3)c2C#N)CO1 (centres undefined)	-3	0.9	2	14
62	Cc1ccc(C(=O)Oc2cc(N)n(S(=O)(=O)c3ccc(C)cc3)n2)cc1	16	-0.3	-43	-11
63	CCc1cccc(NC(=O)C(NC(=O)C2CCCCC2)C(C)C)c1 (centres undefined)	-18	1.2	23	-9

item	L929 necroptosis	thrombin 1536	Cl transport mod
46	-0.7	-1	-2.4
47	-0.2	1	-3.8
48	0.4	1	0.27
49	0.5	9	.
50	-0.3	-6	0.026
51	.	3	0.64
52	0.9	-4	-0.36
53	2.3	0	-0.039
54	1.7	4	-0.017
55	1.8	-1	-0.77
56	3.3	0	.
57	0.9	-4	0.22
58	-0.5	4	0.45
59	1.0	-4	.
60	-0.2	17	0.57
61	2.2	13	0.16
62	0.0	0	0.4
63	29	-11	0.93

Screening results as filed in PubChem.
